CSC inhib: blocks cancer stem cells; cancer stem cell-like cells viability, luminescence; inhibition, % at 7.5 µM; 1.1% of 300,000 active; AID 2717;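 active = mean at 75% or more and at least half the replicates too; tested in HMLE shEcad cells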;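 also: 0% = median of negative and 100% = median of positive control wells; the first replicate is given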
Yeast UUG start: alters start codon recognition fidelity in yeast. S. cerevisiae UUG-firefly luciferase reporter, luminescence/redox ratio. activity score, % at 18.7 µM. 0.13% of 350,000 active. AID 602363;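 active = replicate mean at a twofold rise or more, about +100% in these data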;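 also: firefly luciferase made from a UUG start codon reports start codon fidelity; reporter light over untreated wells divided by growth signal over untreated wells; some hits fall short of that in this replicate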
MT1-MMP act inh: blocks activation of human MT1-MMP. P50281. HT1080 RFP-PRO-GFP cells, GFP/RFP ratio fluorescence, overnight; percent of plate control window, DMSO zero. GFP/RFP ratio change, % at 20 µM. 0.061% of 360,000 active. AID 651647;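 active = GFP/RFP ratio change of at least 30% with cell ATP level not reduced by more than half and red fluorescence within 50% of control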; also: strong numbers were not always called active
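Material – HT1080 RFP-PRO-GFP cells · Control set – DMSO wells and RFP-L50D-GFP cells · Incubation – overnight cell settling, then overnight compound exposure, 37 °C, 5% CO2 · Compound dosing – single-point 20 µM compound, 1% DMSO · Read-out – GFP/RFP fluorescence ratio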
Rce1 inh: yeast Ras-converting enzyme inhibition | Q03530 | calls only | yeast membranes, quenched prenylated peptide cleavage fluorescence | 0.27% of 290,000 active;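 active = fall in fluorescence gain of 50% or more versus controls, with final raw signal at or below 3038400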;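 also: plate controls were neutral control wells for no effect and wells lacking membranes for full effect; tested at 10 µM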
PABP polyA inh: blocks human PABP binding to poly(A) RNA; P11940; fluorescence polarization; inhibition, % at 35 µM; 1% of 290,000 active;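 active = 50% or more with normal probe brightness, or confirmed in later tests; about a fifth of its hits are not listed in these tables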;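 also: calls also rest on retests at 20 µM and on dose response follow-up; controls were probe without protein and protein plus probe with vehicle; some compounds called inactive have numbers as strong as hits; many hits fall short of the cut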
Target sequence (P11940 whole entry, looked up): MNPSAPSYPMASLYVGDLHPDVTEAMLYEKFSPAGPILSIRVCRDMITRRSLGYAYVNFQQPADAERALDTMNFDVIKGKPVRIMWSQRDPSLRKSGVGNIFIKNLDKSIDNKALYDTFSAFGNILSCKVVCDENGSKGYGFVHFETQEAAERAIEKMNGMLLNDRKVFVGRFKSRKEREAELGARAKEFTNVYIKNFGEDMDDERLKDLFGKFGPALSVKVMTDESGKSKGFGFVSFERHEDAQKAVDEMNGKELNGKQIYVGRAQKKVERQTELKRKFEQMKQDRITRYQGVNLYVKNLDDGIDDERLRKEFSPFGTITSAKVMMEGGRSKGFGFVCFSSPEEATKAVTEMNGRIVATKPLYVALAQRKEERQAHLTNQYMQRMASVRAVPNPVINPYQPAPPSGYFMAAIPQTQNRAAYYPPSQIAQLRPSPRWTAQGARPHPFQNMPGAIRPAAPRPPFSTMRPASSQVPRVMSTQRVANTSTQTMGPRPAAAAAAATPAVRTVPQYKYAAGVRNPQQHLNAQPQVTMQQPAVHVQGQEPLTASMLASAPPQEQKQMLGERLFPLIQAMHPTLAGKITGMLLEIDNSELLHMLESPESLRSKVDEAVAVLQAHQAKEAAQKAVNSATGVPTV
eIF4H inh: inhibitors of RNA binding by human eIF4H; inhibition, % at 35 µM; eIF4H fluorescence polarization binding assay; 0.94% of 290,000 active; Q15056;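 active = 50% or more with normal probe brightness, or confirmed in later tests; about a fifth of its hits are not listed in these tables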;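 also: calls also rest on retests at 20 µM and on dose response follow-up; 0% = protein and probe with vehicle and 100% = probe without protein; strong numbers were not always called active; many hits fall short of the cut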
Env fusion inh: HIV envelope-mediated fusion inhibition; 1.1% of 360,000 active; HeLa-JRFL Env/CEM21 cell fusion, luciferase; AID 651610; inhibition, % at 12.3 µM;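 active = mean replicate inhibition score of at least 50 and every replicate individually at or above 50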;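 also: 0% = plate neutral controls and 100% = maraviroc near 300 nM; one replicate is shown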
eIF4H inh retest: further read-out of eIF4H inh, marked with its call; inhibition, %; compound at 20 µM; confirmation average;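 mean of two retest wells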
PABP polyA inh retest: recorded beside PABP polyA inh, whose call it bears; inhibition, %; compound at 20 µM; confirmation repeats;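 mean of two retest wells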
MT1-MMP act inh RFP: recorded beside MT1-MMP act inh, whose call it bears; RFP signal change, %; measured here: RFP expression control read;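 0 = vehicle wells; hits needed this value within 50% of zero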
Numbers without * were called inactive; i = inactive; . = not tested or not shown; [ ] = remark or other dose.

Start of the data: the first four entries as a preview:
SMILES | CSC inhib | Yeast UUG start | MT1-MMP act inh | MT1-MMP act inh RFP | Rce1 inh | PABP polyA inh | eIF4H inh | Env fusion inh | others
CCCc1ccc(C(=O)CN2C(=O)C(=O)N(C3CCCC3)C2=O)cc1 | -13.6 | -11.7 | 1.2 | 0.7 | . | . | . | 14.6
O=C(NO)c1ccc(OC(F)F)cc1 | 8.4 | . | 2.1 | 11.5 | i | -8.4 | -2.3 | .
COc1cc(OC)c(C2N(c3cc(C)on3)C(=O)C3CCCN32)cc1OC (stereo unspecified) | . | -3.9 | -2.4 | -0.1 | i | 2.3 | -5.1 | 11.7
NNC(=O)c1ccc(COCC(F)(F)F)cc1 | -12.6 | . | 0.2 | 2.7 | i | -1.9 | -6.6 | -59.4

Results, from the start:
SMILES | CSC inhib | Yeast UUG start | MT1-MMP act inh | MT1-MMP act inh RFP | Rce1 inh | PABP polyA inh | eIF4H inh | Env fusion inh | others
CCCc1ccc(C(=O)CN2C(=O)C(=O)N(C3CCCC3)C2=O)cc1 | -13.6 | -11.7 | 1.2 | 0.7 | . | . | . | 14.6
O=C(NO)c1ccc(OC(F)F)cc1 | 8.4 | . | 2.1 | 11.5 | i | -8.4 | -2.3 | .
COc1cc(OC)c(C2N(c3cc(C)on3)C(=O)C3CCCN32)cc1OC (stereo unspecified) | . | -3.9 | -2.4 | -0.1 | i | 2.3 | -5.1 | 11.7
NNC(=O)c1ccc(COCC(F)(F)F)cc1 | -12.6 | . | 0.2 | 2.7 | i | -1.9 | -6.6 | -59.4
Cc1c(-c2ccc(/C=N/NC(=O)C(=O)Nc3ccccc3F)o2)cccc1[N+](=O)[O-] | -8.8 | -3.8 | -4.4 | 6.7 | . | -4.7 | 7.0 | -16.3
Cn1c(SCc2c(F)cccc2Cl)nc2ccccc2c1=O | 0.1 | -9.2 | -2.9 | -6.7 | . | . | . | 8.6
O=C(c1ccco1)N(Cc1ccccc1)Cc1ccccn1 | 0.7 | . | -3.1 | -2.3 | i | 0.0 | -9.0 | -4.0
C=CCNC(=O)CN(CCc1ccccc1)S(=O)(=O)c1ccccc1 | -17.8 | 1.9 | -0.2 | 2.7 | i | -4.2 | -11.2 | 11.4
Cc1c(C(=O)NCC2CCCO2)oc2ccc(S(=O)(=O)N3CC(C)CC(C)C3)cc12 (stereo unspecified) | 3.2 | -9.8 | -2.7 | -11.3 | i | 2.1 | 1.1 | 50.8
CCOC(=O)c1cc(CC)sc1NC(=O)COc1ccc2c(C)cc(=O)oc2c1 | 1.6 | . | 3.0 | 3.9 | i | 2.2 | 3.4 | -11.0
O=C(Nc1ccc2c(c1)OCO2)C1CCN(C(=O)c2ccc(Cl)cc2)CC1 | -2.0 | 9.1 | 0.1 | 2.8 | i | -9.1 | -4.1 | -4.2
Cc1ccc(S(=O)(=O)N(C)C)cc1-n1c(SCC(=O)N(C)C)nc2ccccc2c1=O | -7.7 | . | -0.1 | 2.5 | i | 4.2* | 52.1* | 2.3 | eIF4H inh retest=87.3*;PABP polyA inh retest=72.1*
CCSc1nnc(NC(=O)C2CCN(S(=O)(=O)c3c(C)c(C)cc(C)c3C)CC2)s1 | . | . | . | . | i | -6.2 | -10.1 | .
CCN(CC)S(=O)(=O)c1ccc(N=Nc2cc(C)cc(Br)c2O)cc1 | -3.9 | -15.1 | 3.2 | -5.9 | i | . | . | -8.6
O=C(Cn1ncc2c1-c1ccccc1OC2)N1CCc2ccccc21 | 2.0 | -4.4 | -3.1 | -2.9 | i | -13.6 | -4.3 | -113.5
CCOc1ccc(NC(=O)CN2C(=O)c3ccccc3C2=O)cc1 | -1.7 | -11.1 | -2.1 | -2.7 | i | -3.8 | -4.5 | 3.3
CCOC(=O)c1oc2ccccc2c1COC(=O)CNC(=O)c1cc(OC)c(OC)c(OC)c1 | -3.2 | . | 3.7 | -1.8 | i | . | . | .
CCN(CC)CCNC(=O)c1ccc(NC(=O)c2cccc(S(=O)(=O)N(C)C3CCCCC3)c2)cc1 | . | -12.5 | 3.7 | -1.4 | . | . | . | 6.9
O=C(ONC1=NCCCCC1)c1ccc([N+](=O)[O-])cc1 | -12.1 | . | -1.5 | -0.4 | . | 3.2 | 6.5 | -15.5
CC(Sc1nc(-c2ccccc2)cc(C(F)(F)F)n1)C(=O)N1CCC(C(N)=O)CC1 (stereo unspecified) | -7.7 | 6.7 | -0.5 | 3.3 | i | 10.3 | -1.0 | .
O=C(CNC(=O)c1cccc(Br)c1)N/N=C/c1cccs1 | -0.9 | -0.5 | 10.9 | 5.4 | i | -11.1 | -13.8 | -8.8
COc1ccc(CNC(=O)C[C@H]2C(=O)N(CCc3ccccc3)C[C@@H]2Cc2ccccc2)cc1 | -5.3 | -3.3 | 5.2 | -6.4 | i | -7.3 | 3.2 | 15.5
CCOC(=O)C1=C(O)C(=O)N(C2CCCCC2)C1 | -2.7 | -0.3 | -1.1 | 1.0 | i | 10.9 | 2.0 | -0.1
Cc1cc(C)n2nc(C(=O)OCC(=O)Nc3ccc(C)c(S(=O)(=O)N4CCOCC4)c3)nc2n1 | -11.1 | . | 1.4 | 2.5 | . | . | . | 13.8
O=c1[nH]c(-c2ccccc2)cnc1-c1ccccc1 | -7.0 | -1.9 | 1.3 | 1.2 | i | . | . | -33.4
CC(=O)Nc1ccc(S(=O)(=O)Nc2nc3ccccc3nc2N2CCc3ccccc3C2)cc1 | -11.7 | -22.8 | 3.4 | 5.5 | i | -2.6 | 1.2 | -6.1
O=C(CC[C@H]1O[C@@H](n2ccc(=O)[nH]c2=O)[C@H](O)[C@@H]1O)N1CCN(Cc2cccc3ccccc23)CC1 | . | -6.1 | 1.4 | 2.1 | . | . | . | 5.5
O=C(Nc1ccc(Cl)c([N+](=O)[O-])c1)C(NCCCO)c1ccccc1 (stereo unspecified) | -9.3 | -7.9 | 7.9 | 4.3 | i | 14.6 | 1.7 | -1.6
CCOC(=O)c1c(C)[nH]c(NC(=O)Nc2ccc(NC(C)=O)cc2)c1C | -21.1 | -10.4 | -3.0 | 2.7 | i | -0.2 | 4.3 | -33.7
C=CCOc1ccc(/C(O)=C2\C(=O)C(=O)N(CCCOC)C2c2ccc(O)c(OC)c2)cc1 (stereo unspecified) | -6.8 | -7.2 | 1.6 | 3.9 | i | 0.7 | -0.7 | .
N#CCCn1nnc(-c2ccccc2F)n1 | -13.1 | -8.2 | 2.3 | 6.7 | . | 6.3 | -7.9 | -12.6
CC(O)(c1ccccc1)c1nc(-c2ccncc2)cs1 (stereo unspecified) | . | -11.8 | -2.1 | -24.0 | . | . | . | 27.0
CCOC(=O)N1CCN(C(=O)c2nn(-c3ccc(C)cc3)c(=O)c3c2c2ccccc2n3C)CC1 | -4.9 | -11.0 | 5.6 | -1.0 | i | -4.6 | -7.3 | -11.0
Cc1ccccc1CN1CCN(C(=O)c2cccc3ccccc23)CC1 | 15.2 | 3.9 | -3.8 | -5.4 | i | 14.0 | 5.3 | 17.5
CC1CC(NC(=O)c2cnc3n(c2=O)CCS3)CC(C)(C)C1 (stereo unspecified) | -2.2 | -4.1 | -0.3 | 0.5 | i | -0.4 | -5.8 | 18.0
CC(NC(=O)Cc1ccc(F)cc1)c1ccc(F)cc1 (stereo unspecified) | -4.2 | -22.3 | 3.1 | 3.6 | i | 0.5 | -1.7 | -5.0
CCC(=O)N1CCC1(C)C(=O)Nc1cnc2ccccc2c1 (stereo unspecified) | . | -16.8 | 12.0 | -0.3 | . | . | . | -0.8
CCCS(=O)(=O)N1CCCC(C(=O)NCCN2CCCCC2C)C1 (stereo unspecified) | -11.8 | . | -2.6 | -1.1 | i | 2.8 | -6.4 | .
CCOc1ccc(CCNC(=O)COC(=O)c2cccc(S(=O)(=O)N3CCCC3)c2)cc1OCC | -4.7 | -6.1 | 3.3 | 5.2 | i | . | . | -1.6
COc1ccccc1N1C(=NC(=O)COc2ccccc2)SC2CS(=O)(=O)CC21 (stereo unspecified) | -13.2 | . | 0.6 | 2.5 | i | 0.3 | -1.5 | -6.0
Cc1cccc(N2CCN(S(=O)(=O)c3ccc4c(c3)CCCN4C(=O)C3CCC3)CC2C)c1 (stereo unspecified) | 0.9 | -10.2 | 0.1 | -6.0 | i | . | . | 11.5
Cc1ccc(S(=O)(=O)N(C)C[C@H]2OCc3cn(nn3)CCCC(=O)N([C@@H](C)CO)C[C@@H]2C)cc1 | . | -9.2 | 3.2 | 5.0 | . | . | . | -6.0[16.7 µM]
NC(=O)[C@H]1CC2(CC(c3cccc(NC(=O)COc4ccc(Cl)cc4)c3)=NO2)CN1C(=O)c1ccc(Cl)cc1 (stereo partly specified) | -6.9 | -15.0 | 6.1 | -12.4 | i | -2.8 | -8.9 | 35.0
Cc1ccc(NC(=O)CN2CCN(Cc3ccccc3)CC2)cc1 | -6.1 | . | 4.4 | 1.3 | i | 3.7 | -2.7 | 6.8
COc1cc(OC)cc(C(=O)Nc2nc(CC(=O)NC(C)c3ccccc3)cs2)c1 (stereo unspecified) | -6.7 | -11.4 | 2.7 | 2.6 | i | . | . | -62.4
O=C(COc1ccc2ccccc2c1)N1CCN(c2ccccc2)CC1 | -14.5 | -17.5 | 1.5 | 2.7 | i | . | . | 2.4
CCOC(=O)CC(=O)CSC1=C(C#N)C(c2ccccc2OC)CC(=O)N1 (stereo unspecified) | -10.5 | -2.7 | -0.6 | 6.5 | i | 5.8 | 4.5 | .
CCn1c(C)nc2cc(C(=O)N3N=C(CCOC)CC3(O)C(F)(F)F)ccc21 (stereo unspecified) | -13.4 | . | 4.9 | 2.4 | i | -5.2 | 8.5 | 2.8
COc1ccc(OCCSc2n[nH]c(N)n2)cc1 | 8.6 | -20.9 | 1.4 | 2.5 | i | 0.2 | 8.2 | .
NC(=O)c1cccc(-c2ccnc3c2CC(C(=O)NCC2CC2)O3)c1 (stereo unspecified) | . | 2.8 | -3.8 | -0.7 | . | . | . | -20.3
NS(=O)(=O)c1cccnc1Nc1cccc(C(F)(F)F)c1 | 2.2 | -12.1 | 0.4 | -4.5 | i | -1.4 | -6.2 | .
Fc1cccc(Nc2c3c(nc4ccccc24)CCC3)c1 | 3.9 | -17.8 | 10.6 | -2.4 | i | -4.5 | 0.4 | -5.2
O=C(NC(=S)N1CCCCC1)C12CC3CC(CC(C3)C1)C2 | -4.6 | . | 2.2 | 4.0 | i | -5.8 | -7.2 | -74.1
CCN(C(=O)COC(=O)c1cccnc1Nc1cccc(C(F)(F)F)c1)C1CCS(=O)(=O)C1 (stereo unspecified) | 6.1 | -18.4 | -0.1 | 6.6 | i | 0.4 | -0.8 | 28.1
CC(C)Oc1ccc(C(=O)NCc2cccnc2)cc1 | -7.4 | -28.0 | 1.7 | 3.0 | i | 11.6 | -1.7 | -7.2
O=C(CN1CCCC1)Nc1ccc([N+](=O)[O-])cc1 | 5.7 | -15.0 | 0.8 | -2.8 | i | 8.4 | -8.4 | -2.3
CCOC(=O)c1sc(NC(=O)c2cc(-c3ccccc3)nc3ccccc23)c(C#N)c1C | 52.7 | -21.8 | -15.8 | -33.4 | i | 1.6 | -0.1 | .
COC(=O)C1=C(C)N(Cc2ccco2)C(=O)N[C@@H]1c1ccco1 | 4.3 | -5.3 | -3.3 | -0.2 | i | . | . | 6.0
COC(=O)c1c(C)oc2ccc(N(C(=O)c3ccncc3)S(=O)(=O)c3ccc(C)cc3)cc12 | -6.8 | -11.5 | -2.0 | -20.1 | i | -1.1 | -7.5 | .
FC(F)(F)c1cnc(Oc2cccc3ccccc23)c(Cl)c1 | -2.1 | . | 0.6 | 2.4 | i | 3.0 | 3.5 | 11.0

High-throughput results from PubChem.

Rows were taken by chance; any-hit rate near 3%.
